Screening data deposited in PubChem by ICCB-Longwood Screening Facility, Harvard Medical School.
Sa growth inh: S. aureus growth inhibition; S. aureus RN4220 growth, OD600, 20 h, 42 °C; active compounds read low; relative growth, % (concentration not given with the values); 170,000 tested, 0.53% active; AID 720641;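 active = growth at 42 °C up to 50% and 20 or more points under that at 30 °C, or under 10% at both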;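 note: 300 nL library stock went into each well; scaled to the means of positive and negative controls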
GIV Gai3 FP: blocks GIV peptide binding to rat Galpha-i3. P08753. Galpha-i3/FITC-GIV peptide fluorescence polarization, 90 min; active compounds read low; scaled: aluminum fluoride 0%, vehicle 100%. percent of control (FP), % (concentration not given with the values). 210,000 tested, 0.42% active. AID 1224905;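 active = replicate mean at 85% of control or lower, very high polarization wells dropped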;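 note: wells of about 15 µL received 100 nL stock; the first replicate is given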
Target sequence (P08753 whole entry, looked up): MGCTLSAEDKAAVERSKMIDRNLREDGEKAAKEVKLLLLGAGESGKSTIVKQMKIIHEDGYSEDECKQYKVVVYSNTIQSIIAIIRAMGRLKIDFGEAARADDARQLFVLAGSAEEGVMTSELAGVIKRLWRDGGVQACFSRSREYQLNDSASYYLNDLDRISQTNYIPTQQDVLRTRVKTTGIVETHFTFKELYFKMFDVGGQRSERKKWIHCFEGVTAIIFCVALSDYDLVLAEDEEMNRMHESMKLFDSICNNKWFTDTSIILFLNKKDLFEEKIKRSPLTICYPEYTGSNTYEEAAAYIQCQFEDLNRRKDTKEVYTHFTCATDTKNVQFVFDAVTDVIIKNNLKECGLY
HCMV NEC inh: disrupts HCMV UL50-UL53 complex binding; HTRF UL50-UL53 interaction, normalized percent inhibition; inhibition, % (concentration not given with the values); 190,000 tested, 0.15% active;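 active = both replicates at 50% or more, plus weaker picks with an unusually low signal ratio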;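 note: stock transfer was 100 nL into about 20 µL; 0% = negative control wells and 100% = wells with untagged competitor protein; inactives centre near -12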
Sa growth inh second temp: second read-out of Sa growth inh, no call of its own (marks repeat the call); relative growth, %; measured here: growth at 30 °C;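 optical density after 20 h as mean of two plates; 100% = untreated growth and lower means inhibition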
An asterisk follows results filed as active; . = not tested or not shown; & = joins results of further samples.

Abbreviations: A = Sa growth inh; B = Sa growth inh second temp; C = GIV Gai3 FP; D = HCMV NEC inh
> O=C(CC12CC3CC(CC(C3)C1)C2)NCc1ccco1
  A: 101.8	B: 80.9	C: 103.2	D: -7.4
> CCN(CC(=O)NCc1ccc(F)cc1)c1ccc(S(=O)(=O)N(CC)CC)cn1
  A: 89.3	B: 94.3	C: .	D: 4.9
> CCOC(=O)COc1ccc(C)cc1C(=O)c1ccn2nc(-c3ccc(F)cc3)cc2n1
  A: 93.8	B: 83.5	C: 106.5&95.6	D: -6.3&-28.9
> O=C(c1nc(-c2ccccc2)n(-c2ccccc2)n1)N1CCCC1
  A: .	B: .	C: 104.0	D: -24.0
> Cc1ccc(CNC(=O)c2cnc(N3CCCCC3)c3ccccc23)cc1
  A: 99.8	B: 99.0	C: 102.4	D: .
> CCn1c2ccc(Cl)cc2c2cc(Cl)ccc21
  A: 107.6	B: 96.1	C: 95.3	D: -1.6
> Cn1cccc1-c1cc2n(n1)CCC(=O)N2CC(=O)NCCc1ccc(Cl)cc1
  A: .	B: .	C: 103.1	D: -16.7
> CC1CC(Nc2ccccc2)c2ccccc2N1C(=O)c1ccc(Cl)cc1Cl (stereo unspecified)
  A: .	B: .	C: 101.7	D: -21.0
> COc1cc2c(cc1OC)C(c1ccccc1)N(C(=O)COC(=O)C1CC1)CC2 (stereo unspecified)
  A: 89.6	B: 91.6	C: .	D: 7.1
> CCC(CC)c1nnc(NC(=O)CN2C(=O)C3CC=CCC3C2=O)s1 (stereo unspecified)
  A: 96.5	B: 100.9	C: .	D: -7.5
> O=c1[nH]nc(CSc2ccc(Cl)cc2)n1-c1ccccc1
  A: 88.0	B: 84.5	C: 107.0	D: -29.7
> CC(=O)N1CCCc2ccc(NC(=O)c3ccccc3)cc21
  A: 94.0	B: 88.2	C: 110.6	D: -18.6
> Cc1ccc(N/C=C2\C(=O)C3(C)CCC2C3(C)C)cc1C (stereo unspecified)
  A: 109.9	B: 81.7	C: .	D: -14.7
> CC1(C)CC(=O)C2=C(C1)NC1=C(C(=O)c3ccccc31)C2c1cccnc1 (stereo unspecified)
  A: 103.7	B: 88.0	C: 104.4	D: -29.5
> CN1C(=O)N(C)C(=O)C(CC(=O)N2CCCc3ccccc32)(CC(=O)N2CCCc3ccccc32)C1=O
  A: 82.9	B: 92.9	C: .	D: -10.8
> COc1ccc(N2CCCn3c2nc2c3c(=O)n(CC(=O)O)c(=O)n2C)cc1
  A: .	B: .	C: 98.2	D: -5.4
> CCCn1c(NC(=O)C2CCCCC2)nc2ccccc21
  A: 69.3	B: 68.1	C: 100.9	D: -11.3
> CCC(=O)NC1CCN(C(=S)NC)CC1
  A: 104.6	B: 84.8	C: 99.5	D: -4.2
> CC1=CSC2=NC(=O)/C(=C\c3cccn3-c3ccccc3)C(=N)N12
  A: 117.2	B: 94.9	C: 112.2	D: -12.9
> Cc1ccc(N2C(=O)/C(=C\c3ccc4c(c3)OCO4)N=C2SCC(=O)NCC2CCCO2)cc1 (stereo unspecified)
  A: 106.6	B: 88.0	C: .	D: -24.5
> CCCCc1ccc(NC(=O)CSc2nnc3[nH]c(=O)cc(C)n23)cc1
  A: 112.5	B: 87.9	C: 95.5	D: .
> Cc1ccc(S(=O)(=O)NC(=O)Nc2cccnc2)cc1
  A: 88.9	B: 80.1	C: 102.6	D: -11.7
> Cc1nc(-c2cc(NC(=O)CNC(=O)c3ccccc3)c(C)s2)no1
  A: .	B: .	C: 103.6	D: -15.8
> CCCNS(=O)(=O)c1ccccc1
  A: 91.0	B: 75.8	C: 104.4	D: 2.7
> CC(=O)NC(CC(=O)N1CCN(c2ccccc2)CC1)c1ccccc1 (stereo unspecified)
  A: 117.9	B: 95.2	C: .	D: 11.4
> Cc1cc(C)cc(C(=O)NC(=S)Nc2ccc3[nH]c(=O)[nH]c3c2)c1
  A: 95.5	B: 96.1	C: 94.9	D: -9.7
> CCNc1ncnc2scc(-c3ccccc3)c12
  A: 93.9	B: 88.2	C: .	D: -15.0
> CCOC(=O)c1ccc(NC(=O)c2c(NCc3cc(OC)c(OC)cc3OC)sc3c2CCCC3)cc1
  A: 96.3	B: 94.1	C: 104.1	D: .
> NS(=O)(=O)c1ccc(Cl)c(C(=O)Nc2ccc(Cl)cc2)c1
  A: 106.3	B: 98.1	C: 103.9	D: -13.5
> CCc1ccccc1N(C)S(=O)(=O)c1c(C)noc1/C=C/N(C)C
  A: 92.7	B: 90.4	C: 110.0	D: 9.5
> O=S(=O)(NCc1ccc(N2CCOCC2)cc1)c1ccc(C(F)(F)F)cc1
  A: 105.9	B: 84.4	C: 103.7	D: 41.4
> COc1cccc(C=Nc2cnn(C)c2C(N)=O)c1O
  A: 102.4	B: 76.1	C: 95.9	D: -36.1
> CCCCCCCCCCCCCCCCOP(=O)([O-])OCC[N+](C)(C)C
  A: 86.9	B: 81.4	C: 101.4	D: -30.8&-16.3&-16.3
> COc1cc2c(C#N)c(N3CCCCC3)nc3c2c(n1)NC1(N3)C(=O)Nc2ccccc21 (stereo unspecified)
  A: 116.4	B: 77.5	C: .	D: 1.7
> Nc1ccnc(C(=O)O)c1
  A: 84.8	B: 82.6	C: 95.5	D: -29.8
> CC(=O)Nc1ccc(S(=O)(=O)NCC2CCC(C(=O)N3CCN(c4ccccn4)CC3)CC2)cc1 (stereo unspecified)
  A: 97.0	B: 82.5	C: 102.3	D: 5.2
> CCC1CCCCN1C1CC(=O)N(c2ccc(NC(C)=O)cc2)C1=O (stereo unspecified)
  A: 105.1	B: 92.0	C: 103.4	D: -9.9
> CCCCc1c(COC)nc(-c2ccc(Cl)cc2)[nH]c1=O
  A: 121.9	B: 53.0	C: 102.2	D: -9.3
> CC(C)(C)NC(=O)c1cc(NC(=O)C(F)(F)F)cc(NC(=O)C(F)(F)F)c1
  A: 109.1	B: 88.4	C: .	D: 13.8
> CCOc1ccc(NC(=O)Nc2cc3[nH]c(=O)[nH]c3cc2C)cc1
  A: .	B: .	C: 103.6	D: 2.0
> Cc1nnc(N2CCC(C(=O)NCc3cccc(Cl)c3)CC2)c2nn(-c3ccccc3)c(C)c12
  A: 107.6	B: 68.8	C: 101.5	D: .
> CCOC(=O)c1cc(-c2ccc(C)cc2)n(CC(=O)Nc2ccccc2F)c1C
  A: 104.9	B: 78.7	C: 102.9	D: -23.1
> Cc1cnc2c(c1SCC(=O)Nc1ccc(F)cc1F)c(=O)n(C)c(=O)n2C
  A: 113.5	B: 87.9	C: 106.7	D: .
> COc1cc(NC(=O)Cn2cc(C(=O)c3ccc(F)cc3)c(=O)c3ccc(C)nc32)cc(OC)c1
  A: 94.3	B: 90.1	C: 111.3	D: .
> CC1=CC(=C(C#N)C#N)CC(C)(C)C1
  A: 87.9	B: 13.4	C: 127.6	D: -54.2
> C#CCn1c(O)c(N=NC(=O)c2ccccc2-n2cccc2)c2ccccc21
  A: 19.9	B: 6.1	C: 109.6	D: -55.6
> O=C(c1ccccc1)C1CCN(C(=O)Nc2ccccc2)CC1
  A: 102.0	B: 93.4	C: 98.4	D: -13.0
> CCc1ccc(NC(=O)CN(c2ccc(Cl)cc2)S(=O)(=O)c2ccsc2C(=O)OC)cc1
  A: 117.6	B: 101.1	C: 107.1	D: .
> Cc1ccc(NC(=O)Cn2c(=O)n(Cc3nc(-c4ccccc4)no3)c(=O)c3cc4c(cc32)OCO4)c(C)c1
  A: 82.7	B: 96.8	C: 101.9	D: .
> Clc1ccc(-c2csc3ncnc(N4CCCC4)c23)cc1
  A: .	B: .	C: 97.5	D: -11.1

Other records follow.
Abbreviations: A = Sa growth inh; B = Sa growth inh second temp; C = GIV Gai3 FP; D = HCMV NEC inh
> CC1=C(C(N)=O)C(c2ccc(Br)cc2)n2ncnc2N1 (stereo unspecified)
  A: .	B: .	C: 110.6	D: -21.9
> O=C(c1ccc(NC2CCCCC2)nn1)N1CCc2ccccc21
  A: .	B: .	C: 108.3	D: 13.7
> O=C1CCCC(O)=C1C1(O)C(=O)c2ccccc2C1=O
  A: 95.5	B: 93.2	C: 62.1*	D: 74.4*
> Cc1cccc(C(=O)Sc2cccccc2=O)c1
  A: -1.0*	B: -0.6*	C: 106.9	D: .
> CCN(CC)C(=O)c1sc2c(c1C)c(=O)n(Cc1ccccc1)c(=O)n2CC(=O)C(C)(C)C
  A: 105.5	B: 83.0	C: 100.9	D: 5.6
> COC(=O)c1ccc(OC(=O)CCc2nc3cc(S(=O)(=O)N4CCOCC4)ccc3n2C)cc1
  A: 86.8	B: 89.8	C: .	D: -11.7
> O=C(COc1ccc(F)cc1)NCC(c1ccccc1)c1c[nH]c2ccccc12 (stereo unspecified)
  A: .	B: .	C: 108.8	D: -26.2
> CCC(=O)C(C#N)c1nnc(-c2ccccc2)s1 (stereo unspecified)
  A: 80.9	B: 82.3	C: .	D: -3.1
> CCc1ccc2c(c1)-c1ccccc1S(=O)(=O)N2CC(=O)NC
  A: .	B: .	C: 97.1	D: -11.0
> CCOC(=O)C1=C(CC)Nc2ccccc2N/C1=N\S(=O)(=O)c1ccccc1OC
  A: 93.4	B: 84.9	C: .	D: 2.0
> O=C(NCc1cn2ccsc2n1)c1cc(Cl)cc(Cl)c1
  A: 96.5	B: 89.7	C: .	D: -18.4
> CCOc1ccc(C(=O)Nc2c(C)nc(Nc3ccccc3)nc2Nc2ccccc2)cc1OCC
  A: 121.2	B: 89.1	C: 109.1	D: -6.4
> COc1ccc(-c2nsc(NC(=O)CC(C)C)n2)cc1
  A: 87.4	B: 50.1	C: 100.2	D: -16.8
> O=C1CN(S(=O)(=O)c2cccc(C(=O)O)c2)c2ccccc2N1
  A: 81.2	B: 94.5	C: .	D: -34.8
> Cc1nn(C)c(C)c1NC(=O)c1ccccc1N
  A: 99.7	B: 91.0	C: 99.9	D: -3.9
> CCC1CN(S(=O)(=O)c2ccc3c(c2)NCCS3)c2cc(Cl)ccc2O1 (stereo unspecified)
  A: .	B: .	C: 103.4	D: -3.3
> Cc1cc(C)n(Cc2c(C(=O)NCCc3c[nH]c4ccccc34)noc2C)n1
  A: .	B: .	C: 103.0	D: -32.1
> O/N=C1\CCCc2c1[nH]c1ccc(Cl)cc21
  A: 16.1	B: 3.0	C: 92.1	D: -23.1
> CCn1cc2nc(SCC(N)=O)n(CCc3ccccc3)c(=O)c2n1
  A: 97.3	B: 85.9	C: 101.3	D: -25.5
> NC(=O)C1CCN(C(=S)NC(=O)C2CC2)CC1
  A: 82.3	B: 93.0	C: .	D: -13.4
> Cc1ccccc1NC(=O)COc1ccc2oc3c(c2c1)CCCC3
  A: 96.5	B: 94.0	C: 104.1	D: 26.5
> CCOc1ccc(-n2c(=O)c3sc4ncccc4c3n(CC(=O)NC3CCCC3)c2=O)cc1
  A: .	B: .	C: 112.4	D: -52.3
> Cc1cc(NC(=O)/C=C/C(=O)O)no1
  A: 105.1	B: 97.7	C: 103.7	D: -6.2
> CCC(=O)N1c2ccccc2CC1C(=O)NCc1ccc(CC)cc1 (stereo unspecified)
  A: 102.2	B: 99.8	C: 107.4	D: .
> CCOc1ccc(CN(C)C(=O)C2CCN(S(=O)(=O)c3ccccc3F)CC2)cc1OC
  A: 77.6	B: 88.9	C: .	D: -16.2
> Cc1onc(-c2c(Cl)cccc2Cl)c1-c1noc(CSc2ccccn2)n1
  A: 82.0	B: 85.8	C: 96.4	D: -14.6
> Cc1oc(-c2ccc(C(=O)N(C)Cc3ccccc3)cc2)nc1CN1CCc2ccccc21
  A: 110.4	B: 97.0	C: 111.2	D: .
> c1ccc2c(c1)nc(NC1CC1)c1nnnn12
  A: 92.2	B: 87.9	C: 100.7	D: .

Some of the entries above, reformatted:
smiles,Sa growth inh,Sa growth inh second temp,GIV Gai3 FP,HCMV NEC inh
Cc1cc(C)n(Cc2c(C(=O)NCCc3c[nH]c4ccccc34)noc2C)n1,.,.,103.0,-32.1
O/N=C1\CCCc2c1[nH]c1ccc(Cl)cc21,16.1,3.0,92.1,-23.1
CCn1cc2nc(SCC(N)=O)n(CCc3ccccc3)c(=O)c2n1,97.3,85.9,101.3,-25.5
NC(=O)C1CCN(C(=S)NC(=O)C2CC2)CC1,82.3,93.0,.,-13.4
Cc1ccccc1NC(=O)COc1ccc2oc3c(c2c1)CCCC3,96.5,94.0,104.1,26.5
CCOc1ccc(-n2c(=O)c3sc4ncccc4c3n(CC(=O)NC3CCCC3)c2=O)cc1,.,.,112.4,-52.3
Cc1cc(NC(=O)/C=C/C(=O)O)no1,105.1,97.7,103.7,-6.2
CCC(=O)N1c2ccccc2CC1C(=O)NCc1ccc(CC)cc1 (stereo unspecified),102.2,99.8,107.4,.
CCOc1ccc(CN(C)C(=O)C2CCN(S(=O)(=O)c3ccccc3F)CC2)cc1OC,77.6,88.9,.,-16.2
Cc1onc(-c2c(Cl)cccc2Cl)c1-c1noc(CSc2ccccn2)n1,82.0,85.8,96.4,-14.6
Cc1oc(-c2ccc(C(=O)N(C)Cc3ccccc3)cc2)nc1CN1CCc2ccccc21,110.4,97.0,111.2,.
c1ccc2c(c1)nc(NC1CC1)c1nnnn12,92.2,87.9,100.7,.

Shown as labelled records: two of the compounds above
Cc1cnc2c(c1SCC(=O)Nc1ccc(F)cc1F)c(=O)n(C)c(=O)n2C
  Sa growth inh: 113.5
  Sa growth inh second temp: 87.9
  GIV Gai3 FP: 106.7
  HCMV NEC inh: .

Cc1ccc(N/C=C2\C(=O)C3(C)CCC2C3(C)C)cc1C (stereo unspecified)
  Sa growth inh: 109.9
  Sa growth inh second temp: 81.7
  GIV Gai3 FP: .
  HCMV NEC inh: -14.7
